Assay outcomes deposited in PubChem BioAssay by National Center for Advancing Translational Sciences (NCATS).
LASV entry inh – blocks Lassa virus binding to or entry into cells; actives 1.2% (n = 300,000); Potency, µM (top dose mostly 37.9 µM), inactives show at the top dose activity change, negative = inhibition, actives largely listed as inhibitors; AID 540256; Lassa virus pseudotype entry inhibition, cell reporter; control for the full effect not named in the record; active means well fitted inhibition curve with a large enough effect; inconclusive means small, poorly fitted or top-dose-only effect, or effect the other way; inactive means flat fitted curve, though single readings scatter; tested in HEK293 cells; also: % is scaled to controls: 0 for no effect and ±100 for the full control effect; nearly all actives have a fitted effect of over 50% in size; luciferase read-out
Cruzain noTriton – blocks cruzain activity in detergent-free assay. P25779. purified cruzain, Z-FR-AMC fluorescence, no detergent. Potency, µM, inactives show max response, negative = inhibition, actives largely listed as inhibitors. actives 2.3% (n = 200,000). AID 1476;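 also: plate controls were enzyme without inhibitor for no effect and buffer without enzyme for full effect; nearly all actives have a fitted effect of over 40% in size; top concentration of the series not given in the record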
Target sequence (P25779 123-467 limits assumed): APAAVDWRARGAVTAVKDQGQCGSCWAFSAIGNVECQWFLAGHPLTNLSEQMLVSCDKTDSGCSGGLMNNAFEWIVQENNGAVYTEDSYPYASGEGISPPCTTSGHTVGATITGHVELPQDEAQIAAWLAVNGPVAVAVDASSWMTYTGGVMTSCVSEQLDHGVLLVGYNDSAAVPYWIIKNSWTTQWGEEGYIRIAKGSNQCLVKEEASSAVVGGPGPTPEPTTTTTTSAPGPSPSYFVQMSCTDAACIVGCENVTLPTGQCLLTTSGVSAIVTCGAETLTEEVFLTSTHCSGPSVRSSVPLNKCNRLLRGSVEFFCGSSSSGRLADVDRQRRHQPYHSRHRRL
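Purified cruzain at 1.5 nM, pre-incubated 15 min with compound at room temperature in 100 mM sodium acetate pH 5.5, 5 mM DTT, 0.00005% Triton X-100. Reaction started with 2 uM Z-FR-AMC; AMC fluorescence increase over 60 s gives rate.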
NS1 inh – blocks influenza NS1 protein function; S. cerevisiae slowed by influenza A NS1, growth recovery by OD600; Potency, µM (series often up to 46.1 µM), without a hit: at the highest dose activity, positive = more growth; actives 0.4% (n = 270,000); AID 2326; active means well fitted rising curve with a large enough effect; inconclusive means small, poorly fitted or top-dose-only effect; inactive means no such curve, though single readings can be large or run the other way; also: nearly all actives have a fitted effect of over 50% in size
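A cell-based growth assay was used: compounds that relieve NS1-induced slow growth of budding yeast raise OD600. Assay medium was yeast nitrogen base with ammonium sulphate and -URA supplement, pH 6.0, with 2% galactose.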
Marburg entry inh – blocks Marburg virus binding to or entry into cells. Marburg virus pseudotyped entry inhibition, cell reporter; control for the full effect not named in the record; about a third of the inactives were read at about 46 µM. Potency, µM (doses to about 37.8 µM), for inactives: at the top dose activity change, negative = inhibition, hits mostly inhibitors. actives 1.8% (n = 300,000); active = well fitted inhibition curve with a large enough effect; inconclusive = small, poorly fitted or top-dose-only effect, or effect the other way; inactive = flat fitted curve, though single readings scatter; tested in HEK293 cells; about a fifth of its hits are not listed in these tables; also: % is scaled to controls: 0 for no effect and ±100 for the full control effect; luciferase read-out
Cruzain Triton – blocks cruzain activity in presence of Triton detergent; purified cruzain, Z-FR-AMC fluorescence, 0.01% Triton; Potency, µM, without a hit: max response, negative = inhibition, actives largely listed as inhibitors; actives 0.43% (n = 200,000);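 also: plate controls were neutral wells for no effect and buffer without enzyme for full effect; nearly all actives have a fitted effect of over 40% in size; top concentration of the series not given in the record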
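Read-out: AMC fluorescence (360 nm excitation, 450 nm emission), four reads over 2 min, first-to-third difference used. Conditions: cruzain 1.5 nM, Z-FR-AMC 2 uM, pH 5.5 acetate, 5 mM DTT, 0.01% Triton X-100.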
RE007 growth inh – less growth of the S. pombe RE007 Vpr strain | S. pombe RE007 Vpr strain, BacTiter-Glo ATP luminescence, 24 h; control for the full effect not named in the record | AID 651644 | actives 0.21% (n = 360,000) | Potency, µM (top dose mostly 92.2 µM), for the others: at the top dose activity change, negative = less growth; active = well fitted falling curve with a large enough effect; inconclusive = small, poorly fitted or top-dose-only effect; inactive = no such curve, though single readings can be large or run the other way;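 also: % is scaled to controls: 0 for no effect and ±100 for the full control effect; nearly all actives have a fitted effect of over 50% in size; the assay follows cell death caused by Vpr and the record does not say whether a fall means rescue or toxicity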
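Fission yeast RE007 carrying one integrated HIV-1 vpr copy, seeded at OD 0.01 in PMG+AL medium with 23 nL pinned compound. Grown 24 h at 30 degrees; viability read by BacTiter-Glo luminescence after 5 min.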
SARS PLpro yeast – SARS-CoV PLP inhibition in yeast; S. cerevisiae expressing SARS-CoV PLpro, growth rescue; control for the full effect not named in the record; Potency, µM (doses to about 32.9 µM), inactives show top-dose activity, positive = growth rescue; actives 0.19% (n = 330,000); AID 485353; active means well fitted rising curve with a large enough effect; inconclusive means small, poorly fitted or top-dose-only effect; inactive means no such curve, though single readings can be large or run the other way; also: 0% is about no effect; nearly all actives have a fitted effect of over 55% in size; growth read by luminescence after 48 h
2A StopGo – lowers the luciferase signal of an FMDV 2A StopGo reporter | human cells with a luciferase reporter of 2A StopGo recoding; control for the full effect not named in the record | Potency, µM (titrated, usually from 57.9 µM), without a hit: at the top dose signal change, negative = less light | actives 1.2% (n = 410,000) | AID 1159524; active = well fitted falling curve with a large enough effect; inconclusive = small, poorly fitted or top-dose-only effect; inactive = no such curve, though single readings can be large or run the other way; tested in HEK293T cells; also: % is scaled to controls: 0 for no effect and ±100 for the full control effect; nearly all actives have a fitted effect of over 45% in size; luciferase light after 4 h
* marks the source's active call; other numbers are inactive results; ? = inconclusive; . = no result given; & = joins results of further samples; [ ] = another dose, or the depositor's remark. Unless noted, calls follow the shape of the dose curve; as a rule, active = well fitted curve in the direction sought with a large enough effect; inconclusive = small, poorly fitted or top-dose-only effect, or another doubt; inactive = no such curve, though single readings can be large; an effect the other way counts as inactive or inconclusive. Potency is read from the fitted curve at half-maximal effect.

SMILES	LASV entry inh	Cruzain noTriton	NS1 inh	Marburg entry inh	Cruzain Triton	RE007 growth inh	SARS PLpro yeast	2A StopGo
COc1ccc2c(CCNC(=O)c3ccco3)c[nH]c2c1	2%	-1%	-8%	?	2.4%	-23%	-8%	26%
Cc1ccc(NCc2nnc(SCCN3CCCCC3)n2CC2CCCO2)cc1Cl (stereo not given)	?	2%	-3%	?	-2.2%	-4%	4%	-3%
CCC(CC)C(=O)Nc1nnc(S(=O)(=O)N2CCCC2)s1	.	.	-11%	.	.	-1%	3%	5%
Cc1ccc(F)cc1CNC(=O)C1CCC(=O)N(C2CC2)C1 (stereo not given)	3%	.	2%	6%	.	-2%	-1%	2%
CC(=O)N(C)c1ccc(NC(=O)C(F)(F)F)cc1	13%	10%	4%	6%	-0.6%	5%	-10%	.
Clc1ccc(COc2ccccn2)cc1Cl	2%	2%	-9%	-20%[46.1 µM]	1.5%	30%	1%	-4%
Cn1c(/C=C/c2ccc(Cl)cc2Cl)c([N+](=O)[O-])c(=O)n(C)c1=O	.	.	-2%	.	.	2%	-2%	32µM*
Cn1c(=O)c(=O)n(C)c2cc(S(=O)(=O)CCC(=O)Nc3cccc(C(F)(F)F)c3)ccc21	?	-13%	20%	-8%&-8%[46.1 µM]	-2.3%	6%	-6%	-6%&-19%
CCC1(c2ccc(F)cc2)NC(=O)N(CC(=O)N2CCN(C(=O)c3ccco3)CC2)C1=O (stereo not given)	16%	.	.	-3%	.	-1%	3%	-13%
O=C(OCc1nc2scc(-c3ccccc3)c2c(=O)[nH]1)c1cc([N+](=O)[O-])ccc1Cl	0%	?	11%	13%	-3.8%	51%	-7%	40µM*
O=C(Nc1cccnc1)c1ccc2c(c1)OCO2	26%	-12%	1%	?	4.5%	-17%	-4%	40%[activator]
COC(=O)c1ccc(NC(=S)NC2CCCCC2C)cc1 (stereo not given)	?	-6%	-19%	2%	-6.6%	2%	?	29%
C=C(C)C1CC=C(C)/C(=N/NC(=O)CNc2ccc(OCC)cc2)C1 (stereo not given)	-7%	?	21%	28%	-3.9%	-11%	-4%	-24%
Cc1ccc(C(=O)N/N=C/c2c[nH]c3ccccc23)o1	-29%[46.1 µM]	.	-11%	?	.	-1%	1%	28%
Cc1ccccc1S(=O)(=O)Nc1nc2ccccc2nc1N1CCOCC1	4%	10%	-27%	5%	-5.7%	-26%	-2%	-19%
COc1cc(/C=N/NC(=O)c2ccncc2)ccc1Oc1ccc([N+](=O)[O-])cn1	-7%[46.1 µM]	.	.	-9%[46.1 µM]	.	-1%	-1%	0%
Cc1cccc(CCNC(=O)C2CCCN(c3cnccn3)C2)c1 (stereo not given)	.	.	7%	.	.	6%	-5%	-20%
CC(C(=O)Nc1ccc2c(c1)OCCO2)N1CCN(C(=O)c2ccco2)CC1 (stereo not given)	3%	-7%	-1%	0%[46.1 µM]	0.1%	21%	1%	-6%
CCOC(=O)c1cnc(SC)nc1N1CCCC1	0%	.	-8%	?	.	6%	1%	-12%
Cc1cc(C)c2nc(NNC(=O)c3ccc(S(=O)(=O)N4CCc5ccccc5C4)cc3)sc2c1	16µM*	6.3µM*	?	?	3.5%	10%	5.6µM*	-16%
O=C(NC(C(=O)N/N=C/c1cccc2ccccc12)c1n[nH]c(=O)c2ccccc12)c1ccccc1 (stereo not given)	?	?	25%	?	-9.4%	-3%	19%	-24%
COc1ccccc1N1CCN(C(=O)Nc2ccc([N+](=O)[O-])cc2)CC1	9%	-9%	9%	?	-9.6%	-1%	0%	-6%
COc1cccc(N2C(C(C)=O)=NN(c3ccccc3)C2c2ccc(N3CCOCC3)cc2)c1 (stereo not given)	?	?	-23%	?	-3.3%	7%	-28%	-5%
O=C1CC(=O)N2N=C(c3ccc([N+](=O)[O-])cc3)SC2=N1	21%	-1%	16%	?	-2.5%	-10%	6%	-6%
COc1ccc(OC)c(NC(=O)COc2ccc(S(=O)(=O)NC(C)C)cc2)c1	-2%	14%	-2%	-12%	1.0%	2%	-1%	.
CCOc1ccc(-n2c(SCc3nc(-c4ccc(C)cc4)no3)nnc2-c2ccncc2)cc1	1%	?	-68%	?	-3.2%	-3%	-11%	-27%
S=C(NCCCc1ccccc1)Nc1ccccc1Cl	0%	10%	-45%	-12%	-19%	1%	-21%	42%[activator]
Cc1cc(N(C)C)ccc1[N+](=O)[O-]	2%	-19%	-4%	4%	-7.6%	-29%	-7%	-5%
COc1ccc(NC(=O)C2CCN(S(=O)(=O)c3ccc4c(c3)NC(=O)C(C)S4)CC2)cc1 (stereo not given)	-11%[46.1 µM]	.	6%	?	.	-7%	-4%	0%
CC(CCC(=O)O)C1CCC2C3CCC4C[C@H](O)CCC4(C)C3CC(=O)C12C (stereo not given in full)	16%	.	-37%	-7%	.	-6%	0%	1%
O=C(Oc1ccccc1)N1CCN(c2ccc(F)cc2)CC1	-5%	2%	-17%	0%	-3.0%	2%	4%	0%
CCOC(=O)N1CCN(C(=O)c2c(-c3c(Cl)cccc3Cl)noc2C)CC1	-10%	.	18%	23%[46.1 µM]	.	8%	0%	1%
CC(=O)c1ccc(-c2cccs2)s1	16%[46.1 µM]	.	.	13%[46.1 µM]	.	-15%	3%	0%
O=C(COC(=O)Cn1cnc2ccccc21)Nc1cccc(S(=O)(=O)N2CCOCC2)c1	10%	.	.	-4%[46.1 µM]	.	-11%	-5%	-13%
O=C(O)c1sccc1Oc1ccc(NS(=O)(=O)c2ccccc2)cc1	-3%[46.1 µM]	.	5%	3%[46.1 µM]	.	9%	2%	-7%
Cc1ccccc1-c1nnc(SCCOc2ccc3c(C)cc(=O)oc3c2)o1	4%	20%	-8%	-18%	-3.0%	-8%	-1%	-9%
Cc1cc(C)nc(-n2nc(C)cc2Nc2ccccc2)n1	-27%	?	-14%	?	3.1%	-18%	-8%	?
O=C(Nc1cccc(Cl)c1Cl)c1cc(S(=O)(=O)NCCc2ccccc2)ccc1F	17%[46.1 µM]	-7%&11%	-3%	?	-0.2%&-4.8%	-9%	?	-3%&60%
CCOC(=O)c1ccc(-n2[nH]c(-c3ccccc3)cc2=O)cc1	?	21%	-97%	-12%	-19%	-20%	-23%	?
CCCOC(=O)c1ccc(NC(=O)C2CCCO2)cc1 (stereo not given)	9%	1%	-17%	13%	-0.3%	6%	-15%	63%[activator]
COC(=O)Nc1ccc(S(=O)(=O)Nc2ccc(C(=O)O)cc2)cc1	5%	.	0%	4%[46.1 µM]	.	-3%	0%	-6%
Cc1ccc(-c2nc3ncccc3o2)cc1NC(=O)c1ccco1	13%	.	20%	11%[46.1 µM]	.	7%	.	12%
O=C(Cc1cccs1)N(c1ccc(Cl)cc1)C1C=CS(=O)(=O)C1 (stereo not given)	?	1%	0%	-26%	3.9%	3%	1%	.
O=C(COC(=O)CNS(=O)(=O)c1c(Cl)cccc1Cl)Nc1ccccc1Sc1ccccc1	4%	1%	-41%	-18%	-14%	0%	-10%	-9%
CCOC(=O)c1nn(-c2sc(C(=O)OC)c(C)c2C(=O)OC)cc1O	-9%	-5%	7%	10%	-3.7%	-8%	3%	.
CCC1=C/C(=C/N(C)c2ccccc2)C(=O)S1	6%	-9%	-32%	20%	-10%	-10%	1%	33%[activator]
COc1ccccc1OCC(=O)Nc1cccc(-c2nc3ccccc3o2)c1	13%	?	4%	21%	-3.2%	-7%	-1%	.
CCOc1cccc2sc(N3CCN(C(=O)c4ccco4)CC3)nc12	-4%[46.1 µM]	-1%	.	.	-3.8%	.	.	-12%
O=c1c2[nH]c3ccccc3c2ncn1Cc1ccco1	-10%	-4%	-5%	3%	0.6%	2%	-2%	11%
CSc1ccc(Nc2nn(-c3ccc(OC(F)(F)F)cc3)nc2C(C)=O)cc1	6%[46.1 µM]	?	.	-1%[46.1 µM]	1.9%	.	.	3%
O=C(COC(=O)c1ccc2c(c1)C(=O)N(c1cccc3ncccc13)C2=O)c1ccc(Cl)cc1	?	?	7%	?	-3.6%	4%	21%	?
CN(CC(=O)Nc1nc2ccccc2s1)S(=O)(=O)c1ccccc1	15%	3%	-8%	?	-0.6%	2%	0%	-29%
Cc1ccc(NC(=O)CSc2nc(=O)n(Cc3ccncc3)c3c2CCC3)c(C)c1	0%	.	.	3%	.	21%	-2%	-7%
COc1ccc(Cl)cc1NC(=O)CSc1cn(CC(=O)N2CCCC2)c2ccccc12	3%[46.1 µM]	?	.	.	-3.6%	.	.	?
COC(=O)c1ccc(CSc2nnc(-c3c[nH]c4ccccc34)n2C)o1	.	-12%	5%	.	2.4%	-3%	6%	-14%
c1ccc(-c2cc(N3CCCCC3)c3ccccc3n2)cc1	-3%	.	.	-14%[46.1 µM]	.	1%	-10%	?
COc1ccc(NC(=O)CN(C)C(=O)CN2C(=O)c3ccc([N+](=O)[O-])cc3C2=O)cc1	0%	.	-5%	21%	.	-15%	-7%	-22%
NNC(=O)CNC(=O)c1ccccc1F	0%	0%	1%	15%	3.8%	11%	1%	13%
Clc1ccc(OCc2nn3c(-c4ccncc4)nnc3s2)cc1	-4%	1%	-91%	-13%	0.3%	28%	-1%	?
COc1ccc(NC(=O)CSc2ccc(-c3ccco3)nn2)cc1	2%	.	10%	?	.	17%	-8%	-18%
CC1=C(c2ccc(Cl)cc2)[N+](=O)C(C)(C)N1[O-]	11%	-2%	1%	-32%&-32%	-2.2%	-9%	0%	-6%
O=c1[nH]c(Cc2ccccc2)nc2ccccc12	-2%	.	4%	-1%[46.1 µM]	.	14%	0%	18%
COc1ccc(NCc2ccccc2-c2nnc(-c3ccccc3)o2)cc1Cl	7%[46.1 µM]	-1%	.	?	-0.9%	.	.	41%[activator]
